VACV E9 pol inh – vaccinia E9 polymerase processive synthesis inhibition; in vitro processive DNA synthesis, absorbance read-out; hits give low values; some inactives read as strong as hits; 0.94% of 46,000 active; AID 493162; normalized absorbance, % (test concentration not listed);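 active = replicate mean up to 90% and picked by the depositor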;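 note: 100% = median of the test wells of a plate; 100 nL library stock went into each well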
The depositor's hits bear a star. Not all compounds are listed. The share of hits here may be higher or lower than overall.

SMILES	VACV E9 pol inh
CC(C)CNC(=O)c1ccc(COc2ccc3ccccc3c2)o1	100
Cc1ccc(OCC(O)Cn2ccnc2C)cc1 (stereo unspecified)	96
COc1ccc2nc3c(nc2c1)C(=O)c1ccccc1C3=O	104
CC1CC1C(=O)OCC(=O)Nc1ccc(Oc2ccccc2)cc1 (stereo unspecified)	97
CNC(=O)CSc1nnc(-c2ccccc2F)n1CCc1ccccc1	98
Cc1cc(C)c(NC(=O)c2cc(S(=O)(=O)N3CCc4ccccc43)ccc2F)c(C)c1	100
Nc1cc(C(F)(F)F)ccc1-n1cnc2ccccc21	92
Cc1ccc(SC(C(=O)c2ccccc2)C(=O)c2ccccc2)cc1	100
O=C(COc1ccc(Cl)cc1)OCc1ccc(Br)cc1	106
COC(=O)C1CC(=O)N(Cc2ccccc2)C1 (stereo unspecified)	103
Cc1nc(-c2coc3cc(OCC(=O)O)ccc3c2=O)cs1	104
Cc1ccc(Oc2ccc(OCC(=O)NCc3ccco3)cc2)cc1	104

Sorted by length of the SMILES (largest number first): part of the list above
SMILES	VACV E9 pol inh
Cc1cc(C)c(NC(=O)c2cc(S(=O)(=O)N3CCc4ccccc43)ccc2F)c(C)c1	100
Cc1ccc(SC(C(=O)c2ccccc2)C(=O)c2ccccc2)cc1	100
Cc1ccc(Oc2ccc(OCC(=O)NCc3ccco3)cc2)cc1	104
O=C(COc1ccc(Cl)cc1)OCc1ccc(Br)cc1	106
COC(=O)C1CC(=O)N(Cc2ccccc2)C1 (stereo unspecified)	103
Cc1ccc(OCC(O)Cn2ccnc2C)cc1 (stereo unspecified)	96

(cont.)
SMILES	VACV E9 pol inh
CCn1c(SCC(=O)c2ccccc2)nc2sc3c(c2c1=O)CCC3	100
CC(C)(C)OC(=O)N1CCC(CNS(=O)(=O)c2cc(Cl)sc2Cl)CC1	100
Cc1cc(/C=C(/C#N)S(C)(=O)=O)c2c(C)ccc(C(C)C)cc1-2	98
CSC(=S)n1c(=Nc2ccccc2)sc2ccccc21	105
Cc1ccc(C)n1-n1cnc2scc(-c3cccs3)c2c1=O	99
Clc1cc(Cl)cc(OCc2nn[nH]n2)c1	100
O=C(/C=C/c1ccc(Cl)cc1)N1CCN(C(=O)c2ccco2)CC1	101
CNC(=O)/C=C1\N(C)c2ccccc2C1(C)C	102
O=C(Cn1c(C(F)(F)F)nc2ccccc21)Nc1ccccc1C(=O)O	119
COc1ccc(OC)c(NS(=O)(=O)c2ccccc2)c1	100
COc1ccccc1/C=C1\SC(=O)N(CCC(=O)O)C1=O	101
CCOC(=O)c1cc(CSc2n[nH]c(=O)n2-c2ccccc2)nn1C(C)(C)C	100

Not a retest: an excerpt of the list.
SMILES	VACV E9 pol inh
Clc1cc(Cl)cc(OCc2nn[nH]n2)c1	100
O=C(/C=C/c1ccc(Cl)cc1)N1CCN(C(=O)c2ccco2)CC1	101
CNC(=O)/C=C1\N(C)c2ccccc2C1(C)C	102
O=C(Cn1c(C(F)(F)F)nc2ccccc21)Nc1ccccc1C(=O)O	119

More results.
SMILES	VACV E9 pol inh
CC(C)(C)OC(=O)NCc1nc(N)n[nH]1	105
CC(=O)Nc1cccc(Oc2ncnc3scc(-c4ccc(C(C)C)cc4)c23)c1	100
CCN(CC)C(=O)Sc1cccc2cccnc12	100
COc1cc(CNC(C)(C)C)ccc1OCC(=O)NC(C)(C)C	100
CN(C)c1ccc(C(=C2C=CC(=[N+](C)C)C=C2)c2ccc(N(C)C)cc2)cc1	49*
N#Cc1nc(COc2ccc(Cl)cc2)oc1NCCc1ccccc1	98
CCOC(=O)c1ccc(NC(=O)c2ccc[n+]([O-])c2)cc1	102
COc1ccc(CCNC(=O)COc2cc(=O)n(C)c3ccccc23)cc1OC	75
CCc1ccc(/C=C2\SC(=S)N(CCCC(=O)Nc3cccnc3)C2=O)cc1	100
CCCCc1c(-c2ccccc2)nc(N)c(C#N)c1-c1ccc(O)c(OC)c1	95
Cc1ccc(C)n1-c1ccc(Oc2ccc(Br)cc2)cc1	100
CO[C@@H]1[C@@H](OC(N)=O)[C@@H](O)[C@H](Oc2ccc3c(O)c(NC(=O)c4ccc(O)c(CC=C(C)C)c4)c(=O)oc3c2C)OC1(C)C	98
O=C(CCn1c(=O)sc2ccccc21)NC1=NCCS1	101
O=C(O)CCCSc1nccn1-c1ccccc1	93
CSc1ccc(C2C3=C(CCCC3=O)Nc3ccc4ccccc4c32)cc1 (stereo unspecified)	100
CC(=O)Nc1ccc(C2N3CCCN23)cc1 (stereo unspecified)	100
CCOC(=O)c1[nH]c2ccc(OC)cc2c1NC(=S)N1CCOCC1	101
O=C(O)c1ccccc1C(=O)NC1CCCCNC1=O (stereo unspecified)	106
c1ccc(-c2nn(-c3ccccc3)c3c2cnc2ccccc23)cc1	100
O=C(CCCn1ncn2c(cc3occc32)c1=O)NCCc1ccccc1	100
C=CCN1C(=O)/C(=C2\SC(=S)N(CC(=O)O)C2=O)c2cc(Br)ccc21	95
O=C(O)CC1C=C(Cl)S(=O)(=O)C1 (stereo unspecified)	110
COC(=O)c1ccc(C2Nc3cccc4cccc(c34)N2)cc1	99
Cc1ccc(Cn2c(C(=O)NCc3ccccc3)cc3sccc32)cc1	96
CC1(C)CC(NC(=O)Cc2ccccc2)CC(C)(C)N1	102
CC(C)OC(=O)Cn1cc(C#N)c2ccccc21	102
CCc1cc(C(=O)O)c(NC(=O)c2cccc(C)c2)s1	99
CN1CCCN(C(=O)c2ccccc2Br)CC1	100
C=CC[n+]1ccc(/C=C/c2ccccc2O)c2ccccc21	100
CCOc1ccc(-n2c(=O)c3sccc3n(CC(=O)NC3CCCC3)c2=O)cc1	102
COC(=O)c1ccc(-n2nnnc2SCCCC(=O)c2ccc(F)cc2)cc1	103
COc1cccc(-c2cc(C(=O)N(C)c3ccccc3)no2)c1	100
CC1CN(C(=O)C2CCCCC2)C(C)CN1C(=O)C1CCCCC1 (stereo unspecified)	98
CC(C)(C)c1ccc(NC(=O)NC2CCCc3ccccc32)cc1 (stereo unspecified)	101
CN1C/C(=C\c2ccc3c(c2)OCO3)C(=O)/C(=C/c2ccc3c(c2)OCO3)C1	97
COC(=O)CCSCc1cn2cc(Cl)ccc2n1	102
Cc1cc(-c2onc(C)c2C(=O)NC(=O)Nc2ccccc2)no1	99
O=C(CSC1CCCCC1)NC1CCCC1	93
O=C1C=CC(=O)N1c1ccccc1	100
O=S(=O)(/N=C1\C=C2N(CCO)CCOC2(O)c2ccccc21)c1ccccc1 (stereo unspecified)	104
COc1ccc2cc1Oc1ccc(cc1)C[C@H]1c3cc(c(OC)cc3CCN1C)Oc1c(OC)c(OC)cc3c1[C@H](C2)N(C)CC3	84*
O=C1N(c2ccccc2)NC(c2ccco2)C12CCCCC2 (stereo unspecified)	106
CCc1ccc(N2C(=O)/C(=C/c3cccn3C(C)(C)C)C(=O)NC2=S)cc1	100
CC1CCN(C(=O)CSc2nnc(Cc3ccccc3)o2)CC1	95
N#CSc1c(Cl)nc2sccn12	97
O=C(O)CSCC(=O)N1CCN(S(=O)(=O)c2cc(Cl)cc(Cl)c2)CC1	99
O=C1c2nccnc2C(=O)N1c1ccccc1	100
CCOc1nc2ccccc2c(=O)n1CCO	100
CNC(=O)C1CCN(S(=O)(=O)c2c(C)noc2/C=C/N(C)C)CC1	96
CCOC(=O)c1cc(-c2ccccc2)n(CC(=O)Nc2nc3ccc(Cl)cc3s2)c1C	107
CCN1C(=O)/C(=C2/C(=O)N3c4c(cc(OC(=O)c5cccs5)cc42)C(C)=CC3(C)C)SC1=S	100
CCC(C)N(Cc1cn(CC)c2ccccc12)C(=O)Nc1ccc(Cl)c(Cl)c1 (stereo unspecified)	80
COc1cccc(NC(=O)c2ccc(Cl)cc2)c1	102
COC(=O)CSc1nc(-c2ccccc2)cc(-c2ccccc2)c1C#N	99
CC(C)(SC(=S)N1CCCCCC1)C(=O)O	100
NCCc1csc2c1CCCC2	100
CN(C)Cc1ccc2ccc3cccc4ccc1c2c34	12*
O=C(COC(=O)c1ccc2ccccc2n1)Nc1ccc(Cl)c(C(F)(F)F)c1	100
O=C(COC(=O)Cc1ccsc1)Nc1ccccc1	106
C/C(=C\C#N)n1nc(C)cc1N	104
The listing continues.
SMILES	VACV E9 pol inh
CCn1c(C)nc2cc(O)ccc21	70
O=C(CC(=O)Nc1ccccn1)Nc1ccc2nc3n(c(=O)c2c1)CCCCC3	84
NC(=O)COC(=O)c1sc2ccccc2c1Cl	90
CC(C)C(=O)N=C1SC2CS(=O)(=O)CC2N1c1ccccc1 (stereo unspecified)	91
O=C(c1cc2c(s1)CCC2)N(CCO)Cc1ccccc1	93
COCC(C)NC(=O)c1ccc(OC(C)=O)cc1 (stereo unspecified)	98
c1coc(-c2ncc3ccccn23)c1	100
CSc1[nH]c(=O)[nH]c(=O)c1C#N	100
O=C(ON(C(=O)c1ccccc1)c1ccccc1)c1ccccc1	91
NCCc1c[nH]c2ccc(O)cc12	101
Oc1ccc(-n2cccc2)cc1	101
Cc1nn2c3ccccc3nc2n1CCN1CCCCC1	100
Cc1sc2nc(SCc3nc(-c4cccs4)no3)n(-c3ccccc3)c(=O)c2c1C	107
CC(=O)Nc1ccc(N2COc3ccc(NC(C)=O)cc3C2)cc1	106
NC1=NC2(CCN(Cc3ccccc3)CC2)n2c(nc3ccccc32)N1	104
C[N+]1(c2cccc(C(F)(F)F)c2)CCC(N)=N1 (stereo unspecified)	103
C=CCNc1ncnc2c1cnn2-c1ccccc1	101
O=c1[nH]c2ccc(N=Cc3ccc4c(c3)OCO4)cc2[nH]1	100
CN1C2CCC1CC(NC(=O)Nc1ccc(Cl)cc1)C2 (stereo unspecified)	100
O=C(N=C1c2ccccc2CN1c1ccc(F)c(F)c1)c1cccnc1	102
CC1(C)CC(=O)c2sc3nc(-c4ccc(Cl)cc4)cn3c2C1	96
CCN(C(=O)c1coc(=O)c2ccccc12)c1cccc(C(F)(F)F)c1	97
C/C=C/C(=O)OCc1ccc(Cl)cc1Cl	90
Cc1c(-c2ccccc2)[n+](=O)c(-c2ccco2)c(C)n1[O-]	100
CC(C)(C)OC(=O)N1CCN(c2ccc(NS(=O)(=O)c3ccc(Cl)cc3)cn2)CC1	97
C=C(C)Cn1c(CCNC(=O)c2cccs2)nc2ccccc21	101
COc1cc2c(cc1OC)C1(CCC(O)CC1)CN(C)C2 (stereo unspecified)	96
NCCCc1nc2ccc(Cc3ccc4nc(CCCN)[nH]c4c3)cc2[nH]1	77
NC(CCc1ccccc1Cl)c1ccc2c(c1)OCCO2 (stereo unspecified)	98
COc1ccccc1N1CC(C)(C)C(=O)N(C(=O)c2ccc(C)cc2)C1=S	93
O=C(/C=C/c1ccc(F)cc1)OCC(=O)c1ccccc1	99
COc1cccc(/C=C2\N=C(SC)SC2=O)c1	100
Cc1ccccc1OCCNC(=O)c1ccco1	100
O=C(Nc1nnc(-c2ccccc2)s1)c1cccc(C(F)(F)F)c1	98
O=C(c1cccs1)N1N=C2c3ccccc3CCC2C1c1ccccc1Cl (stereo unspecified)	92
N#CCC1Nc2ccccc2S(=O)(=O)N1 (stereo unspecified)	93
Cn1nc(-c2ccc(Cl)cc2)c2ccccc21	100
CN(C(=O)c1ccccc1)c1ccccc1	88
COc1ccc(-c2cc(-c3ccccc3)c(C#N)c(SCCS(=O)Cc3ccccc3)n2)cc1 (stereo unspecified)	100
CCc1ccc(N2C(=O)C3CCCN3C2=S)cc1 (stereo unspecified)	93
CCN1CCN(c2cc(C)c3ccc(OC)cc3n2)CC1	99
N#Cc1c(/N=C/c2ccccc2)sc2c1CCCC2	99
N#CCc1ccc(OCc2cc(C(F)(F)F)cc(C(F)(F)F)c2)cc1	111
CCCCC/C=C\C/C=C\CCCCCCCC(=O)O	99
Cc1[nH]c(=O)[nH]c(=O)c1S(=O)(=O)N1CCC(C(=O)NC(C)c2ccccc2)CC1 (stereo unspecified)	104
CCN1CCCC1CNc1nc2ccc(Cl)cc2n2cnnc12 (stereo unspecified)	88
O=C(O)CC(C(=O)O)c1ccc(F)cc1 (stereo unspecified)	100
CC(CC(=O)NCc1ccccc1)C1CCCO1 (stereo unspecified)	110

Exported in markdown: entries from further up
| molecule | VACV E9 pol inh |
| --- | --- |
| O=C(/C=C/c1ccc(Cl)cc1)N1CCN(C(=O)c2ccco2)CC1 | 101 |
| CCOC(=O)c1cc(-c2ccccc2)n(CC(=O)Nc2nc3ccc(Cl)cc3s2)c1C | 107 |
| CCN1CCN(c2cc(C)c3ccc(OC)cc3n2)CC1 | 99 |
| CC1CN(C(=O)C2CCCCC2)C(C)CN1C(=O)C1CCCCC1 (stereo unspecified) | 98 |
| CC(C)CNC(=O)c1ccc(COc2ccc3ccccc3c2)o1 | 100 |
| Cc1nn2c3ccccc3nc2n1CCN1CCCCC1 | 100 |
| O=C(COC(=O)Cc1ccsc1)Nc1ccccc1 | 106 |
| CC(C)(C)OC(=O)NCc1nc(N)n[nH]1 | 105 |
| COC(=O)c1ccc(-n2nnnc2SCCCC(=O)c2ccc(F)cc2)cc1 | 103 |

Four entries from above, with each value named:
smiles: Cn1nc(-c2ccc(Cl)cc2)c2ccccc21
  VACV E9 pol inh: 100

smiles: CN(C(=O)c1ccccc1)c1ccccc1
  VACV E9 pol inh: 88

smiles: COc1ccc(-c2cc(-c3ccccc3)c(C#N)c(SCCS(=O)Cc3ccccc3)n2)cc1 (stereo unspecified)
  VACV E9 pol inh: 100

smiles: CCc1ccc(N2C(=O)C3CCCN3C2=S)cc1 (stereo unspecified)
  VACV E9 pol inh: 93

(more compounds)
SMILES	VACV E9 pol inh
Cc1c2c(cc3c4c(c(=O)oc13)CCCC4)CN(CCc1ccc(F)cc1)CO2	106
Cc1nc(-c2sc3ccc(Cl)cc3c2C)cs1	97
CCOC(=O)N1CCc2c(sc(NC(=O)CN3CCc4ccccc43)c2C#N)C1	90
C=C(Br)Cn1c(C(C)C)nc2ccccc21	100
CCOC(=O)c1ccc(N=Cc2c(O)cc(C)oc2=O)cc1	98
S=C(Nc1ccccc1)N1CCCN1c1ccccc1	100
NS(=O)(=O)c1cc2c(cc1Cl)NC(C(Cl)Cl)NS2(=O)=O (stereo unspecified)	99
Cc1ccc(-c2nn(C)c(=O)c3ccccc23)cc1CNC(=O)CSc1nc2ccccc2s1	100
Cn1c(Cl)c(CN)c2ccccc21	90
O=C1CC(c2ccccc2F)C2=C(CC(c3ccc(F)cc3)CC2=O)N1 (stereo unspecified)	102
CN1CCN(C(=O)CNS(=O)(=O)c2ccccc2)CC1	105
c1ccc(Nc2ccc(-n3ccnc3)nn2)cc1	101
S=c1[nH]nc(Cc2ccsc2)n1Cc1ccccc1	74
